VACV Venus inh: inhibitors of vaccinia virus (Venus reporter). Vaccinia virus Venus reporter expression, fluorescence. Potency, µM (doses to about 36.5 µM), without a hit: top-dose activity change, negative = inhibition, most hits filed as inhibitors. actives 0.46% (n = 330,000); active means well fitted inhibition curve with a large enough effect; inconclusive means small, poorly fitted or top-dose-only effect; inactive means no such curve, though single readings can be large or run the other way; tested in A549 cells; also: nearly all actives have a fitted effect of over 30% in size; inactives centre near -10
Vaccinia mCherry: inhibitors of vaccinia virus infection (mCherry reporter signal); Potency, µM (top dose mostly 36.5 µM), without a hit: top-dose activity change, negative = inhibition, most hits filed as inhibitors; Vaccinia virus mCherry reporter infection, fluorescence; about a quarter of the inactives have no number; actives 0.63% (n = 310,000); AID 720579; active = well fitted inhibition curve with a large enough effect; inconclusive = small, poorly fitted or top-dose-only effect; inactive = no such curve, though single readings can be large or run the other way; tested in A549 cells; also: nearly all actives have a fitted effect of over 35% in size; inactives centre near -10
Active calls of the source: *; i = inactive; ? = inconclusive; . = no result given; [ ] = remark or other dose. % is scaled to controls: 0 for no effect and ±100 for the full control effect; potency is read from the fitted curve at half-maximal effect.

| canonical_smiles | VACV Venus inh | Vaccinia mCherry |
| --- | --- | --- |
| CN(C)S(=O)(=O)c1ccc(NC(=O)C2CC(=O)N(Cc3ccccc3Cl)C2)cc1 (configuration not stated) | -12% | -11% |
| COc1ccccc1NC(=O)c1oc2ccccc2c1NC(=O)c1cccc(OC)c1OC | -21% | -29% |
| C=CCSc1ncccc1C(=O)NCc1ccccc1 | -15% | -15% |
| COc1ccc(CCNC(=O)C2CCCN(S(=O)(=O)c3ccc4c(c3)oc(=O)n4C)C2)cc1OC (configuration not stated) | -14% | -5% |
| O=c1cc(N/N=C/c2ccccc2)[nH]c(=O)[nH]1 | -16% | -1% |
| COc1cc(OC)cc(-c2nc(-c3cccs3)no2)c1 | -5% | -14% |
| CC(C)NS(=O)(=O)c1ccc(CCC(=O)N2CCc3ccccc3C2)cc1 | -13% | i |
| N/C(=N\OC(=O)c1cnn(-c2ccccc2)c1C(F)(F)F)c1cc(C(F)(F)F)cc(C(F)(F)F)c1 | -12% | i |
| COCC1CCN(C(=O)c2ccc(OC)c(OC3CCN(C(C)C)CC3)c2)CC1 | -11% | -6% |
| Cc1nc(C)c(C(=O)NNS(=O)(=O)c2ccccc2)s1 | -8% | ? |
| CCn1nc(CC(=O)Nc2nnc(CC(=O)N3CCCCC3)s2)c2ccccc2c1=O | -5% | -15% |
| C[C@@H]1CN([C@@H](C)CO)C(=O)CCCn2nncc2CO[C@@H]1CN(C)C(=O)Nc1ccc(N2CCN(C)CC2)cc1 | -7% | i |
| CCCCn1c(N)c(N(CCOC)C(=O)COC(=O)CCOc2ccccc2C)c(=O)[nH]c1=O | -17% | i |
| CCCCN(CCCC)CCNC(=O)CN1C(=O)COc2ccc(S(=O)(=O)N3CCOCC3)cc21 | -8% | -8% |
| CC1CCC(C(C)C)C(OCC(O)CNC(C)(C)C)C1 (configuration not stated) | -20% | -16% |
| O=C(c1ccccc1-n1cccn1)N1CCOc2c(cc(-c3ncc(C(F)(F)F)cc3Cl)cc2OCC2CCCO2)C1 (configuration not stated) | -5% | -8% |
| Cc1onc(-c2c(F)cccc2Cl)c1C(=O)Nc1cccc(S(=O)(=O)N2CCOCC2)c1 | -8% | -16% |
| O=C(Nc1cccc2ccccc12)N1CCN(Cc2ccccc2)CC1 | -20% | . |
| O=S(=O)(c1ccccc1)C1(C2CC(c3ccccc3)=NO2)CC(O)C1 (configuration not stated) | 14% | -4% |
| CC(OC(=O)c1ccco1)C(=O)NCc1ccc2c(c1)OCO2 (configuration not stated) | -9% | i |
| Cc1ccc(CNC(=O)COC(=O)Cc2ccc(-c3ccccc3)cc2)cc1 | -12% | i |
| Cc1cc(C)nc(Nc2ccc(C)c([N+](=O)[O-])c2)n1 | -6% | i |
| Cn1cccc1/C=C1/C(=O)NC(=S)N(Cc2ccc(F)cc2)C1=O | 3% | 16% |
| CCCNC(=O)C1CCC(CNS(=O)(=O)c2ccc3c(c2)CC(C)N3C(C)=O)CC1 (configuration not stated) | -22%[7.34 µM] | -16%[7.34 µM] |
| CNC(=O)C1CC(=O)N(Cc2ccc3c(c2)OCO3)C(=Nc2ccc(F)cc2)S1 (configuration not stated) | -9% | -1% |
| CC(C)CC(=O)NC(c1cccs1)c1ccc2cccnc2c1O (configuration not stated) | ? | 6.3µM* |
| Cc1nc([N+](=O)[O-])cn1CC(=O)c1ccc(OC(F)(F)F)cc1 | -2% | 0% |
| O=C(NC(=S)Nc1ccc(N2CCCC2)cc1)c1ccccc1[N+](=O)[O-] | -9% | -3% |
| CCN(CC)C(=O)c1ccc(COc2ccc(Cl)c(C)c2)o1 | -12% | i |
| CCc1ccc(N2CC(C(=O)Nc3ccccc3F)CC2=O)cc1 (configuration not stated) | -8% | -14% |
| S=C(NCCc1ccccc1)N1Cc2cc(N3CCCCC3)ccc2-n2nncc2C1 | -9% | 8% |
| CCCCCNC(=O)C1CCC(Cn2c(=O)c3sccc3n(CC(=O)N3CCCC3)c2=O)CC1 (configuration not stated) | 1% | -21% |
| COC(=O)c1c(NC(=O)CSc2nnc(-c3ccco3)n2Cc2ccccc2)sc(C)c1C | ? | . |
| CCNc1nc(Cl)nc(NCCOc2ccc(C)cc2)n1 | -11% | i |
| CCC(SC1=NCCS1)C(=O)Nc1ccc(S(N)(=O)=O)cc1 (configuration not stated) | -8% | -2% |
| COc1cc2c(NC3CCN(C(C)C)CC3)nc(N3CCCN(C)CC3)nc2cc1OCCCN(C)C | 0.25µM* | ? |
| COc1ccccc1C1OCC(C)(C)CO1 | 5% | i |
| COc1ccc2c(c1OC)C(=O)N(c1nccs1)C2 | -11% | . |
| Brc1ccc(-c2nc3ncccn3c2NC2CCCCC2)o1 | 0% | -23% |
| CSCC(NS(=O)(=O)c1ccc(C)cc1)C(=O)O (configuration not stated) | 4% | i |
| Cc1ccc(C(=O)NNc2ncnc3c2cnn3C)cc1 | -3%[7.34 µM] | -2%[7.34 µM] |
| CCN(C(=O)Cn1c(SCc2ccccc2F)nc2cccnc21)c1ccccc1 | -9% | -9% |
| Cn1c(=O)c2cc(C(=O)NCCCN3CCN(c4ccc(F)cc4)CC3)sc2c2ccccc21 | ? | ? |
| Cc1ccc(CNC(=O)Cn2c(=O)cc(-c3ccccc3)c3c(C)nn(C)c32)cc1 | 6% | -1% |
| COc1ccc(OC)c(-n2c(-c3cc(-c4ccccc4)n[nH]3)n[nH]c2=S)c1 | ? | -11% |
| O=c1cc(-c2ccccc2)[nH]c2cc(F)ccc12 | -27% | i |
| CCCCC(c1nnnn1CCOC)N1CCN(CC)CC1 (configuration not stated) | -11% | i |
| O=C(O)CSc1nnc(Cc2ccccc2)n1-c1ccccc1 | 0% | -8% |

A second format for some results above:
O=c1cc(-c2ccccc2)[nH]c2cc(F)ccc12
  VACV Venus inh = -27%
  Vaccinia mCherry = i

CCCCC(c1nnnn1CCOC)N1CCN(CC)CC1 (configuration not stated)
  VACV Venus inh = -11%
  Vaccinia mCherry = i

CCN(C(=O)Cn1c(SCc2ccccc2F)nc2cccnc21)c1ccccc1
  VACV Venus inh = -9%
  Vaccinia mCherry = -9%

Brc1ccc(-c2nc3ncccn3c2NC2CCCCC2)o1
  VACV Venus inh = 0%
  Vaccinia mCherry = -23%

Full records as entered above. Order of screens: VACV Venus inh, Vaccinia mCherry
N/C(=N\OC(=O)c1cnn(-c2ccccc2)c1C(F)(F)F)c1cc(C(F)(F)F)cc(C(F)(F)F)c1 is listed with -12%, i
O=C(O)CSc1nnc(Cc2ccccc2)n1-c1ccccc1 is listed with 0%, -8%
CC1CCC(C(C)C)C(OCC(O)CNC(C)(C)C)C1 (configuration not stated) is listed with -20%, -16%
Brc1ccc(-c2nc3ncccn3c2NC2CCCCC2)o1 is listed with 0%, -23%

Next part:
| canonical_smiles | VACV Venus inh | Vaccinia mCherry |
| --- | --- | --- |
| COc1ccc(NC(=O)/C=C/C(=O)O)c([N+](=O)[O-])c1 | -1% | ? |
| COCCn1c(SCC(=O)Nc2cccc(OC)c2)nnc1-c1ccccc1 | -7% | -23% |
| CCc1ccccc1NNC(=O)c1sccc1Cl | -16% | -17% |
| CC(C)c1oc(=O)cc2c1[C@@H](O)[C@H]1OC(=O)[C@@]3(C)C[C@@H](O)[C@@H](O)[C@@]2(C)C13 (some centres not stated) | 2µM* | ? |
| O=C(CSC1=Nc2ccccc2C2=NC(Cc3ccccc3)C(=O)N12)Nc1cccc(Cl)c1 (configuration not stated) | -22% | ? |
| O=C(CNS(=O)(=O)c1cccc(Cl)c1)Nc1ccc(-c2nc3ccccc3s2)cc1 | -10% | i |
| CC(C)N(Cc1nc(-c2ccccc2)no1)C(=O)c1ccc([N+](=O)[O-])cc1 | -21% | -12% |
| Cc1ccccc1OCCNC(=O)CSc1ccc(C(F)(F)F)cc1[N+](=O)[O-] | -7% | i |
| COc1ccc2[nH]c3c(=O)n4c(nc3c2c1)SCC4 | -25% | -19% |
| Cc1ccc(NC(=O)c2nc[nH]c2C(=O)N2CCOCC2)c(C(=O)c2ccccc2)c1 | -18% | -24% |
| CCc1ccc(C(C)NC(=O)C2CCCC2)cc1 (configuration not stated) | -7% | -11% |
| CC(NC(=O)COC(=O)CN1C(=O)NC2(CCCC2)C1=O)c1ccc(F)cc1 (configuration not stated) | -14% | i |

New compounds follow.
Every second line gives: VACV Venus inh, Vaccinia mCherry
> Nc1nnc(SCC(=O)OCc2ccc(Cl)c(Cl)c2)s1
  -8%, i
> Cc1nc(Nc2ncc(C(=O)Nc3c(C)cccc3Cl)s2)cc(N2CCN(CCO)CC2)n1
  ?, ?
> COC(=O)c1cnn2c1C(=O)N(Cc1cccs1)CC2
  -10%, i
> Cc1ccc(S(=O)(=O)NCCC(=O)OCC(=O)Nc2cccc(S(=O)(=O)NC3=NCCCCC3)c2)cc1
  -11%, i
> COc1ccc(N2CCN(c3ccc(S(=O)(=O)N(C(C)C)C(C)C)cn3)CC2)cc1
  -1%, ?
> O=C1c2ccccc2NC(c2ccc(Cl)cc2Cl)N1Cc1ccccc1 (configuration not stated)
  ?, .
> Cc1cc(OC(=O)c2ccco2)c2c3c(c(=O)oc2c1)CCC3
  -6%, -12%
> O=C(OCC(=O)c1ccccc1Cl)C1=NN(c2ccccc2)C(=O)CC1
  -8%, -19%
> CCOC(=O)C1C(c2ccc([N+](=O)[O-])cc2)C2C(=O)NN=C2CC1(C)O (configuration not stated)
  -5%, i
> N#Cc1ccc(C(c2nnnn2Cc2ccccc2)N2CCCC2)cc1 (configuration not stated)
  -13%, -10%
> CCOc1cc2[nH]c(=S)n(CCCN3CCN(C)CC3)c(=O)c2cc1OCC
  -5%, -15%
> C=C(C)CN(CC)C(=O)c1ccc(OC2CCN(S(=O)(=O)N(C)C)CC2)cc1
  -27%, -16%
> Cc1ccc(-c2nnc(NC(=O)c3ccco3)o2)c(C)c1
  -17%, -13%
> CCCOc1ccc(-c2nnn(CC(=O)c3ccc4c(c3)OCCO4)n2)cc1
  -10%, -14%
> CCOC(=O)/C=C1/SCC(=O)N1CCOc1cccc(Br)c1
  12%, -13%
> C=C(C)C(=O)N1CC2(CC(c3cccc(NC(=O)CCCCC)c3)=NO2)C[C@H]1C(N)=O (some centres not stated)
  -14%, i
> Cn1cc(C(=O)N2CCN(c3cccc(Cl)c3)CC2)c(=O)c2cc(S(=O)(=O)N3CCCC3)ccc21
  -4%, i
> COc1cccc(C(=O)Nc2ccc(NC(C)=O)cn2)c1
  -3%, i
> Cc1cnn(C(=O)c2cc(-c3ccccc3)nc3ccccc23)c1
  -8%, i
> Cc1cc(-c2ccc(S(=O)(=O)Nc3ccccc3C)cc2)on1
  ?, ?
> Cc1nn(C)c2c1c(C(F)(F)F)cc(=O)n2CC(=O)N1CCN(c2ccccc2F)CC1
  11%, -1%
> OCCNc1ncnc2c1cnn2Cc1ccccc1
  -17%, i
> O=C(Cc1c[nH]c2ccccc12)N1CCN(S(=O)(=O)c2ccc(F)cc2)CC1
  -15%, 0%
> Cc1ccc(CCC(=O)Nc2ccc(Cl)cc2Cl)o1
  -17%, ?
> CC(=O)OC1(C)C=Cc2ccccc2C1=NS(=O)(=O)c1ccccc1 (configuration not stated)
  6%, -14%
> N#Cc1ccccc1OCC(=O)Nc1cccc(S(=O)(=O)N2CCCCCC2)c1
  -22%, -10%
> Cc1ccc(C(=O)N2CCCCC2)cc1S(=O)(=O)N1CCOCC1
  -11%, i
> CCOc1ccc2nc(N(Cc3cccnc3)C(=O)c3ccc4c(c3)OCCO4)sc2c1
  4%[7.34 µM], 0%[7.34 µM]
> CC(C)c1ccc(C2NC(=O)c3n[nH]c(-c4cccs4)c32)cc1 (configuration not stated)
  -14%, -19%
> C[N+](C)(C)C[C@H](O)CC(=O)O
  -6%, -6%
> Cc1ccccc1CN1C[C@@H]2C[C@@H](c3cn(C)nc3-c3ccccc3)N3CCC[C@@]23C1=O
  -8%, -6%
> CCC(C)NC(=O)CSc1ncccc1C(=O)O (configuration not stated)
  -9%, i
> COc1ccc(-c2sc3ccccc3c2-c2ccc(OCCN3CCCCC3)cc2)cc1
  -17%, -14%
> Cc1ccnc(NC(=O)/C=C/c2cccs2)c1
  ?, ?
> CCN(CC(=O)Nc1ccc(NC(C)=O)cc1)C(=O)/C=C/c1ccccc1
  -21%, -1%
> N#Cc1ccc(NC(=O)CN2C(=O)NC3(CCCC3)C2=O)cc1
  -3%, -28%
> CS(=O)(=O)c1ccc(Nc2nc(C(N)Cc3ccc(F)cc3)cs2)cc1 (configuration not stated)
  2%, i
> Cn1cnc(C(F)(F)F)c1-c1ccc([N+](=O)[O-])cc1
  -8%, -1%
> CCCCn1nnnc1C(c1cccs1)N1CCN(C/C=C/c2ccccc2)CC1 (configuration not stated)
  0%, i
> Cc1nc2cc3nc(C(F)(F)F)[nH]c3cc2[nH]1
  -9%, i
> CCOC(=O)c1cc(-c2ccccc2)n(CCC(=O)Nc2ccc(C(F)(F)F)cc2)c1C
  -24%, -30%
> O=C(NC1CCCCC1)c1cc(S(=O)(=O)N2CCOCC2)c(Cl)cc1Cl
  -19%, -10%
> CS(=O)(=O)N1CCN(c2ccc(NC(=O)COc3ccccc3[N+](=O)[O-])cc2)CC1
  -8%, i
> COc1cc(SC)ccc1C(=O)N(C)CC(=O)Nc1cccc2ccccc12
  -10%, -16%
> CCCCNC(=O)C1=CC(c2ccc3c(c2)OCO3)=NS(=O)(=O)N1C
  -2%, 1%
> Cc1c(C(=O)N2CCCCC2)c(S(=O)(=O)N2CCN(c3ccc(Cl)cc3)CC2)c(C)n1C
  -4%, -13%

Bioassay records (PubChem BioAssay)
